Compound activity: PubChem, National Center for Advancing Translational Sciences (NCATS)
VDR inhibitor: blocks the human vitamin D receptor | Potency, µM, for the others: max response, negative = inhibition, hits mostly inhibitors | 0.93% of 400,000 active | VDR-SRC2-3 peptide fluorescence polarization, 2 h | P11473; active = well fitted inhibition curve with a large enough effect; inconclusive = small, poorly fitted or top-dose-only effect, or another doubt; inactive = no such curve, though single readings can be large or run the other way; note: series mostly up to about 120 µM
Target sequence (P11473 whole entry, looked up): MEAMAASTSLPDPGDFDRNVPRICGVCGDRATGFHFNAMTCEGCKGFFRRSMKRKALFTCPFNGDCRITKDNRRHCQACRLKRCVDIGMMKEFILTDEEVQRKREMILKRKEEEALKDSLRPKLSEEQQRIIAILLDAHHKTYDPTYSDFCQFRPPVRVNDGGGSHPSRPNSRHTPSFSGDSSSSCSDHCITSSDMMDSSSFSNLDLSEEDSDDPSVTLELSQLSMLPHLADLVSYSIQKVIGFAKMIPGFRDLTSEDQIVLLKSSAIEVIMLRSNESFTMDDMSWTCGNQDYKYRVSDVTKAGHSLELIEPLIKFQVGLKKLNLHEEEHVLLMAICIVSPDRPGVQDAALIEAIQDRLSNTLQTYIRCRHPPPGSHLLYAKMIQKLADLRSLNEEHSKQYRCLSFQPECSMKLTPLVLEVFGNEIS
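Reagent solutions, kept cold and dark, are dispensed first; compounds are then pinned in at 23 nl, plates briefly spun, and incubated 2 h at ambient temperature. Inhibition of VDR–SRC2-3 peptide binding is read by fluorescence polarization.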
Active calls of the source: *; ? = inconclusive; & = joins results of further samples; [ ] = remark or other dose. % is set by controls: 0 for no effect and ±100 for the full control effect; potency is the fitted concentration of half-maximal effect. An excerpt; the hit share may differ from the screen's.

SMILES	VDR inhibitor
COCCn1c(=O)[nH]c2cc(C(=O)NCCc3ccc(S(N)(=O)=O)cc3)ccc2c1=O	12.1%
O=C(C=C1CCN(c2ncc(C(F)(F)F)cc2Cl)CC1)NNC(=O)Nc1ccc(Cl)cc1	-15.5%
O=C(Nc1cccc([N+](=O)[O-])c1)c1ccc(-c2ccccc2)cc1	1.1%
O=C(Cc1c(F)cccc1Cl)OCN1C(=O)c2ccccc2C1=O	17.3%
Cc1ccc(CSc2nnc(-c3ccc(S(=O)(=O)N4CCCC4)cc3)o2)cc1	-3.5%
O=C(c1cccc(C(F)(F)F)c1)N1CCOc2ccccc21	15.2%
CCOC(=O)c1c(S(=O)(=O)N2CCC(C(=O)Nc3cccc(C#N)c3)CC2)c(C)n(C)c1C	14.4%
O=C(OCn1nnc2ccccc2c1=O)c1cccs1	-17.7%
Cc1oc2c(C)c3oc(=O)c(CCC(=O)NCCN4CCOCC4)c(C)c3cc2c1C	-16.4%
O=C(Nc1nnc(COc2ccc(Cl)cc2)s1)c1ccc([N+](=O)[O-])cc1	3.7%
O=C(NCCCn1ccnc1)c1ccc(Cl)c(Cl)c1	-16.9%
O=C(NCCCN1CCCC1=O)c1ccccc1NS(=O)(=O)c1ccc(F)cc1	9.9%
CCOc1cc(CNCCc2ccc(S(N)(=O)=O)cc2)ccc1OCC(=O)NC1CCCCC1	1.5%
COc1cc(/C=C2\SC(=S)N(CCC(=O)Nc3cccc(O)c3)C2=O)cc(OC)c1OC	-7.1%
Cc1cc(C)n2nc(SC(C)C(=O)N3CCCC3)nc2n1 (stereo not given)	-5.1%
O=C(COC(=O)/C(=C/c1cccs1)c1cccs1)NCc1ccccc1Cl	16.7%
CN(CC(=O)Nc1ccc(F)c(F)c1F)C(=O)C1=NN(c2ccccc2)C(=O)CC1	3.5%
O=C(c1cc(N2C(=O)C3C4CCC(C4)C3C2=O)ccc1Cl)N1CCN(c2ccccc2F)CC1 (stereo not given)	-24.5%
COc1ccc(S(=O)(=O)N2CCCCC2)cc1NC(=O)CCOc1cc(C)ccc1C	5.3%
Cc1cccc(Nc2n[nH]c(C)c2[N+](=O)[O-])c1	-4.4%
Cc1ccc(NC(=O)CSc2nnc(CNC(=O)c3ccco3)n2C)c(C)c1	-18.9%
O=C(Nc1ccccn1)C1CCN(c2ncnc3c2nc2n3CCCCC2)CC1	11.3%
COc1ccc(NC(=O)N(C)C[C@H]2Oc3c(NC(=O)Nc4ccc(C(F)(F)F)cc4)cccc3C(=O)N([C@H](C)CO)C[C@@H]2C)cc1	-3.5%
O=C1C(=O)N(C2CCN(S(=O)(=O)c3ccc(F)cc3)CC2)CCN1Cc1ccccc1	13.4%
CCOc1ccccc1NC(=O)c1sc2ncn(CC(=O)N3CCOCC3)c(=O)c2c1C	-4.8%
CN(C)/C=C(\C#N)c1nc2ccccc2[nH]1	-0.4%
COc1ccc(CCNC(=O)C2CCN(S(=O)(=O)c3cccs3)CC2)cc1OC	-16.5%
Cc1ccc([C@@H]2CC=C(C(=O)O)[C@H](c3ccccc3)N2S(=O)(=O)c2ccc(C)cc2)cc1	0.5%
CCCCCCCCN1[C@@H](CC(=O)OC)c2cc(F)ccc2S1(=O)=O	?
CC(C)(C)c1oc(C(=O)O)cc1CN1CCOCC1	160.4%[activator]
O=C1NC(=S)N/C1=C/c1cc2c(cc1[N+](=O)[O-])OCO2	0.9%
COc1ccc(OC)c(-n2nnnc2SCC(=O)O)c1	15.2%
CCOc1ccc(NS(=O)(=O)c2ccc3[nH]cc(C(=O)N(CC)CC)c(=O)c3c2)cc1	5.9%
O=C(CN1C(=O)/C(=C/c2ccccc2)SC1=S)NC1CCS(=O)(=O)C1 (stereo not given)	3.5%
Cc1ccc(OCC(=O)N2CCN(c3nnc(-c4ccccc4)c4ccccc34)CC2)cc1	1.1%
CCOc1ccc(OCC)c(NC(=O)C2CCN(S(=O)(=O)c3cn(C)cn3)CC2)c1	19.3%
O=C(NCc1ccco1)c1csc(Nc2ccccc2Cl)n1	-13.8%
CC1Cc2ccccc2N1C(=O)CSc1nncn1C (stereo not given)	-4.7%
O=C(COC(=O)c1ccccc1O)Nc1ccc(S(=O)(=O)N2CCCCC2)cc1	-4.0%
Cc1ccc(C)c(NC(=O)C(Sc2nncn2C)c2ccccc2)c1 (stereo not given)	-4.5%
Cc1ccc(N)c(C(=O)CCCCC(=O)O)c1	-7.7%
COc1cc(/C=C/C(=O)N2c3ccccc3Sc3ccc(C(F)(F)F)cc32)cc(OC)c1OC	16.6%
COCCNC(=O)c1ccccc1NC(=O)c1ccccc1N(C)S(=O)(=O)c1ccccc1	12.4%
Cc1ccc(/C=C/C(=O)Nc2ncc(C)s2)o1	-26.7%
COc1ccc(C(=O)Cn2nnc(-c3ccccc3-n3cnnn3)n2)cc1	-10.7%
COc1ccc(NC(=O)CSc2nc3ccccc3n2CC(=O)N(C)C2CCCCC2)cc1	14.7%
COc1cc(NC(=S)N2CCN(c3ccccn3)CC2)cc(OC)c1OC	-0.9%
O=C(Cc1ccc(NC(=O)N2CCSc3ncccc32)cc1)NCc1ccccc1	5.6%
COc1cc([N+](=O)[O-])ccc1NC(=O)NCCCN1CCCC1=O	-9.9%
COCCNC(=O)/C(C#N)=C/c1cccc(OCc2ccccc2)c1	?
O=C(Nc1ccc(N2CCCC2)cc1)c1cc2ccccc2o1	1.1%
CCc1ccc(C(=O)c2cnc3ccc(F)cc3c2S(=O)(=O)c2ccccc2)cc1	-10.7%
O=c1[nH]c2cc3c(cc2cc1C(c1nnnn1CC1CCCO1)N1CCCCCC1)OCCO3 (stereo not given)	0.3%
O=C(NCCO)c1cccc(Nc2nc(-c3ccccc3)c3cc(Cl)ccc3n2)c1	4.5%
CC1CCCCN1C(=O)c1cc(S(=O)(=O)N2CCCCC2)c[nH]1 (stereo not given)	-4.6%
O=c1cccccc1NN=C1CCCCCC1	0.1%
Cc1cc(Cl)cc(C)c1OCC(=O)NC1CCCCCC1	-11.1%
COc1cc(/C=N/NC(=O)NC2CCCCC2)cc(OC)c1O	1.5%
Cc1ccc(S(=O)(=O)Cc2ccc(C(=O)NC3CCCCCC3)o2)cc1	8.1%
CCc1ccc(NC(=O)N(Cc2c[nH]c3ccccc23)C2CCCCC2)cc1	10.7%

Next results
SMILES	VDR inhibitor
CCOc1ccc(N(CC(=O)NCCOc2ccc(C)cc2)S(=O)(=O)c2ccccc2)cc1	-12.5%
O=C(c1ccc(S(=O)(=O)N2CCOCC2)cc1)N1CCc2ccccc21	-11.7%
CN(C)S(=O)(=O)c1cc(NC(=O)CN2CCOCC2)ccc1Cl	-18.2%
CCOC(=O)N1CCC(NC(=O)CN2C(=O)C(CC)Oc3ccc(C)cc32)CC1 (stereo not given)	-1.3%
CCN1C(=O)c2ccccc2S(=O)(=O)c2ccc(C(=O)NCc3ccccc3)cc21	2.9%
N#Cc1nc(-c2ccc(Cl)cc2)oc1NCC1CCCO1 (stereo not given)	0.6%
Cc1cc(C)n2nc(SCC(=O)c3ccccc3)nc2n1	-10.6%
COc1ccccc1C(=O)N(C1=NC(C)CS1)c1ccc(Cl)cc1 (stereo not given)	0.5%
CCN(CC)c1ccc(/C=N/NC(=O)CNC(=O)C2COc3ccccc3O2)c(O)c1 (stereo not given)	-6.0%
COc1ccccc1OCc1nnc(SCC(=O)N2CCCCC2)o1	-8.5%
O=C(C=Cc1cccc(O)c1)c1ccccc1O	39.8µM*
CCOc1ccc(N(CC(=O)NCc2ccco2)C(=O)CCC(=O)Nc2nccs2)cc1	13.8%
CCCn1c(N)c(C(=O)CSc2nnc(C3CC3)n2Cc2ccccc2)c(=O)[nH]c1=O	0.1%
Cc1oc(-c2ccoc2)nc1CN(CC1CCC(=O)N1)C(C)C (stereo not given)	-12.8%
CCOC(=O)N1CCN(C(=O)CN(c2ccc(OCc3ccccc3)cc2)S(C)(=O)=O)CC1	0.1%
Cc1ccc(-c2cn3cccnc3n2)cc1NC(=O)c1ccc(Br)o1	-16.0%
Cc1nc(SCc2ccccc2C#N)n[nH]1	-17.8%
CC(C)NC(=O)c1cc(-n2cnnc2)ccc1Cl	8.6%
CCOC(=O)c1ccccc1NC(=O)Cn1c(=O)n(-c2ccc(CC)cc2)c(=O)c2c(C)c(C(=O)N(C)C)sc21	5.1%
CC(NC(=O)c1cc2ccccc2o1)C(=O)O (stereo not given)	0.0%
COC(=O)CCC(=O)CN	-0.7%&4.0%
O=C(Nc1nc(-c2ccc(Cl)s2)cs1)c1ccccc1	-10.3%
N#CC1=C(SCc2ccccc2)NC(=O)CC1c1ccco1 (stereo not given)	-25.5%
COc1cccc(CNC(=O)c2ccc(COc3ccccc3)cc2)c1	-1.0%
N#CCCN(C(=O)COC(=O)c1ccc2c(=O)n3c(nc2c1)CCC3)c1ccc(F)cc1	?
O=C(CN1C(=O)NC(c2ccc(F)cc2)C1=O)NC1CCCCC1 (stereo not given)	5.3%
CC(=O)c1ccc(N(CC(=O)NC2CCCC2)C(=O)CNC(=O)c2cccs2)cc1	-2.9%
CCCCSc1oc(-c2ccco2)nc1S(=O)(=O)c1ccccc1	-5.0%
O=C(Cc1ccccc1Nc1c(Cl)cccc1Cl)OCO/N=[N+](\[O-])N1CCCC1	?
Cc1cccc(NC(=O)[C@H](Cc2ccccc2)NC(=O)OCc2ccccc2)c1	-0.1%
C[C@H]1COC(=O)[C@@H](Cc2ccc(F)cc2)C/C=C\C[C@@H](CC(=O)N[C@@H](CO)Cc2ccccc2)C(=O)N1	-8.7%
O=C(Nc1cccc(-c2nc3ccccc3o2)c1)c1cc([N+](=O)[O-])ccc1N1CCOCC1	-18.5%
O=C(NNC(=O)C12CC3CC(CC(C3)C1)C2)c1ccccc1O	1.7%
Cc1ccc(S(=O)(=O)Nc2ccc(N3CCOCC3)cc2)cc1C	1.2%
O=C(NCc1ccccc1)C1CCC(CNc2c(N3CCCCC3)c(=O)c2=O)CC1 (stereo not given)	-4.3%
O=C(COC(=O)c1ccccc1)NC1CCCCCC1	22.9%
O=c1c(Sc2ccccc2)c(C(F)(F)F)[nH]n1-c1ccccc1	-9.3%
Cc1ccc(-c2nc3cccc(C)n3c2Nc2ccc(F)cc2)o1	-9.3%
O=C(Nc1cccc(S(=O)(=O)Nc2ccccc2F)c1)c1ccc2ccccc2n1	15.8µM*
CC1(C)CC(=O)c2c(oc3cc(O)c(O)cc23)C1	7.5%
Cc1ccc(OCc2nnc(SCC(=O)Nc3ccc4c(c3)OCO4)n2C)cc1	-14.5%
COc1ccccc1N1C(=O)N(C(C)=O)C2C1Nc1ccccc1N2C (stereo not given)	5.4%
CCN(CC)C(=O)N1CCN(C(=O)N2CCOCC2)CC1	0.6%
Cc1ccc(CNC(=O)CCC2CCCN(C(=O)c3ccc4c(c3)OCO4)C2)o1 (stereo not given)	-6.3%
CCCCN(C(=O)C1CCCO1)c1c(N)n(CC(C)C)c(=O)[nH]c1=O (stereo not given)	-3.6%
O=S(=O)(O)c1nc2ccccc2n1Cc1ccc(Cl)cc1	-12.3%
COc1ccc(OC)c(CCNC(=O)Cn2ncc3c([nH]c4ccccc43)c2=O)c1	6.8%
Cc1ccc(CNC(=S)NC2CCCCC2)cc1	20.5%
CSc1ccccc1OCc1cc(C(=O)N(C)C(C)c2ccccn2)no1 (stereo not given)	3.3%
Cc1cccc(N2CCN(C(=O)CN3C(=O)COc4ccc(S(=O)(=O)N5CCCCCC5)cc43)CC2)c1C	18.3%
COc1cccc(N2CCN(C(=O)c3cc(-c4ccccc4)nc4c3cnn4C(C)C)CC2)c1	20.9%
Cc1ccc(CNC(=O)C2CC(c3ccccc3[N+](=O)[O-])=NO2)o1 (stereo not given)	-13.7%
COc1ccc([C@H]2CC(=O)C=C(c3cc(Br)ccc3OC)C2)cc1	-5.6%
COc1cc(C2NC(=S)NC(c3ccccc3)=C2C(C)=O)ccc1O (stereo not given)	-10.8%
COc1ccc(/C=C/C(=O)NCCOc2ccc(C)cc2)cc1	7.0%
C[C@@H](CN1C2=NC[C@H](C)N2C[C@H]1Cc1ccc(O)cc1)NC(=O)CCC1CCCCC1	?
CCN(CC)C(=S)NCCc1ccccc1	16.1%
CC(=O)c1cccc(NC(=O)C(C)OC(=O)c2cc(C)oc2C)c1 (stereo not given)	14.3%
Cc1ccc(-c2nnc(SCC(C)C)n2C)cc1	-2.9%
CC(=O)NC(Cc1ccc(F)cc1)C(=O)NC1CCN(C(=O)NCc2ccccc2)CC1 (stereo not given)	-7.5%

4 entries from above, reformatted:
VDR inhibitor	Molecule
0.6%	N#Cc1nc(-c2ccc(Cl)cc2)oc1NCC1CCCO1 (stereo not given)
8.1%	Cc1ccc(S(=O)(=O)Cc2ccc(C(=O)NC3CCCCCC3)o2)cc1
-3.5%	COc1ccc(NC(=O)N(C)C[C@H]2Oc3c(NC(=O)Nc4ccc(C(F)(F)F)cc4)cccc3C(=O)N([C@H](C)CO)C[C@@H]2C)cc1
-12.5%	CCOc1ccc(N(CC(=O)NCCOc2ccc(C)cc2)S(=O)(=O)c2ccccc2)cc1

(continued)
SMILES	VDR inhibitor
CCN(CC)c1ccc([N+](=O)[O-])cc1C(=O)N1CCOCC1	-5.2%
Cc1nc2ccccc2n1CC(=O)OCC(=O)N1CCC(C)CC1	-6.9%
NC(=O)C(CC(=O)O)NC(=O)[C@@H]1CCOc2c(I)cc([N+](=O)[O-])cc2C(=O)N[C@@H](CCC(=O)O)C(=O)N[C@@H](CO)C(=O)N1 (stereo not given in full)	3.3%
CNc1ncnc2c1ncn2[C@@H]1O[C@H](COP(=O)(O)O)[C@@H](O)[C@H]1O	-11.9%
O=C(CC12CC3CC(CC(C3)C1)C2)NCCN1CCOCC1	4.6%

5 entries already listed, sorted by length of the SMILES, rising:
SMILES	VDR inhibitor
O=C(CC12CC3CC(CC(C3)C1)C2)NCCN1CCOCC1	4.6%
CCN(CC)c1ccc([N+](=O)[O-])cc1C(=O)N1CCOCC1	-5.2%
CC(=O)c1cccc(NC(=O)C(C)OC(=O)c2cc(C)oc2C)c1 (stereo not given)	14.3%
CC(=O)NC(Cc1ccc(F)cc1)C(=O)NC1CCN(C(=O)NCc2ccccc2)CC1 (stereo not given)	-7.5%
CNc1ncnc2c1ncn2[C@@H]1O[C@H](COP(=O)(O)O)[C@@H](O)[C@H]1O	-11.9%
